Assay outcomes from PubChem BioAssay.
PrP UTR inh – inhibition of PrP 5' UTR reporter expression; cell-based PrP 5' UTR mRNA reporter, plate reader; inhibition, % (no concentration beside the values); 340,000 compounds, 0.35% hits;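 active = every replicate at 50% or more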;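 note: 0 = median of the neutral control wells; tested in H4 reporter cells; numbers are from one replicate; inactives centre near -14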
Sa RN4220 lethal – kills Staphylococcus aureus RN4220; S. aureus RN4220 growth, OD600, 16 h; inhibition, % (test concentration not listed); 330,000 compounds, 0.33% hits;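 active = z-score of -3 or lower and OD600 up to 0.18 on both plates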;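 note: plate controls were untreated cells for no effect and reference antibiotic for full effect; stock transfer was 100 nL into about 80 µL; one replicate is shown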
Mtb hypoxia inh – reduces hypoxia-regulated biosensor signal in M. tuberculosis. M. tuberculosis hypoxia-regulated fluorescent reporter, fluorescence. fluorescence inhibition, % (test concentration not listed). 300,000 compounds, 0.1% hits;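 active = 35 to 45% if threefold the growth effect, above 45% if 1.5-fold the growth effect; inactive = the rest, general growth blockers included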;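 note: wells of about 50 µL received 100 nL stock; 0% = vehicle wells and 100% = reference inhibitor wells; whole bacteria with a GFP reporter of the hypoxia response; strong numbers were not always called active; many hits fall short of the cut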
BJeLR lethal – kills HRASV12-expressing BJeLR cells | BJeLR (HRASV12) viability, CellTiter-Glo ATP luminescence, 48 h; reference of the scale not given here | inhibition, % (test concentration not listed) | 300,000 compounds, 0.17% hits | AID 1554;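 active = replicate mean above 50%; inconclusive = above 50% but judged a plate artefact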;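 note: 50 nL library stock added to about 25 µL; numbers are from one replicate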
Bead autofluor – counter-screen for toxin protease inhibitors: compound fluorescence; 360,000 compounds, 3.1% hits; AID 624483; compound autofluorescence counterscreen, microsphere flow cytometry; active compounds read high; fluorescence intensity (no concentration beside the values);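 active = at least 3 SD above the mean of all compounds, about 16000 in these data; inconclusive = too few beads counted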;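 note: 100 nL of 1 mM stock went into each well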
ugtP null kill – growth inhibition of S. aureus ugtP deletion strain; growth inhibition, % (no concentration beside the values); AID 1259309; S. aureus RN4220 ugtP deletion, OD600 growth, 16 h; some inactives read as strong as hits; 330,000 compounds, 0.54% hits;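 active = z-score under -3 and OD600 up to 0.15 on both plates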;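 note: plate controls were untreated wells for no effect and antibiotic for full effect; wells of about 80 µL received 100 nL stock; the first replicate is given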
Mtb hypoxia inh growth – second read-out of Mtb hypoxia inh, no call of its own (marks repeat the call); growth inhibition, %; measured here: M. tuberculosis growth (absorbance);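 0% = vehicle and 100% = reference antibiotic; read after six days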
Numbers without * were called inactive; ? = inconclusive; / = no result given. This is a random part of the collection. About 4% of those tested had a hit in this group.

SMILES	PrP UTR inh	Sa RN4220 lethal	Mtb hypoxia inh	Mtb hypoxia inh growth	BJeLR lethal	Bead autofluor	ugtP null kill
COc1cccc(CNC23CC4CC(CC(C4)C2)C3)c1OCc1ccccc1	-1	1.8	13	4	21	3593	0
CC(=O)C1=C(O)C(=O)N(c2ccc(O)cc2)C1c1ccc(F)cc1 (configuration not stated)	-31	-1.3	0	2	3	4027	2
C=CCc1ccc(OCCCNC2CCCC2)c(OC)c1	-47	2.8	17	19	-11	3799	3
O=C(COC(=O)Cc1cccs1)Nc1cc(S(=O)(=O)N2CCOCC2)ccc1Cl	-10	0.2	9	9	/	3474	1
Cc1ccc2c(cnn2C(=O)CCC(=O)NCc2cccc(Cl)c2)c1	-23	23	-5	0	3	5443	20
Cc1ccc(S(=O)(=O)NC(CC(C)C)C(=O)N2CCC(C)CC2)cc1 (configuration not stated)	-33	5.5	5	10	1	4352	11
CCOC(=O)N1CCN(C(=O)c2ccc(NS(=O)(=O)c3ccc(C)cc3)cc2)CC1	-10	1.9	1	2	8	4701	6
Nc1nnc2c(n1)CCCC2	-31	2.8	10	14	-8	9888	2
CC(C)C(NC(=O)CCNC(=O)c1ccccc1Cl)c1nc2ccccc2[nH]1 (configuration not stated)	-15	-3.8	0	4	/	?	5
Cc1cccc(/C=C2\Sc3ccc(C(=O)N4CCC(C(N)=O)CC4)cc3N(C)C2=O)c1	-27	-3.6	-2	4	2	/	-17
CCN(CC)C(C(=O)Nc1ccc(C(C)C)cc1)c1ccc2c(c1)OCO2 (configuration not stated)	-10	4.1	11	12	3	9743	-5
O=C(Nc1cccc(S(=O)(=O)NC2=NCCC2)c1)c1ccccc1OC(F)F	-16	0.9	8	-1	-5	/	3
CCc1ccc(OCC(=O)NC(=S)Nc2cccc(CO)c2)c(Br)c1	-37	-5.8	0	-3	-4	8335	-20
CC(=O)N1c2ccc(S(=O)(=O)N3CCC(C(=O)Nc4cccc(C(F)(F)F)c4)CC3)cc2CC1C (configuration not stated)	-7	-6.4	-7	-4	9	4635	-3
Cc1ccc(Cn2c(=O)cc(C(=O)O)c3ccccc32)cc1	-30	2.5	-1	9	-5	10046	-4

Quoted from the listing.
Under ugtP null kill, O=C(Nc1cccc(S(=O)(=O)NC2=NCCC2)c1)c1ccccc1OC(F)F is entered as 3
Under ugtP null kill, C=CCc1ccc(OCCCNC2CCCC2)c(OC)c1 is entered as 3
Under ugtP null kill, CC(C)C(NC(=O)CCNC(=O)c1ccccc1Cl)c1nc2ccccc2[nH]1 (configuration not stated) is entered as 5
Under Sa RN4220 lethal, CC(=O)N1c2ccc(S(=O)(=O)N3CCC(C(=O)Nc4cccc(C(F)(F)F)c4)CC3)cc2CC1C (configuration not stated) is entered as -6.4
Under PrP UTR inh, Cc1ccc(Cn2c(=O)cc(C(=O)O)c3ccccc32)cc1 is entered as -30

The main list resumes, repeating the 3 entries before the break.
SMILES	PrP UTR inh	Sa RN4220 lethal	Mtb hypoxia inh	Mtb hypoxia inh growth	BJeLR lethal	Bead autofluor	ugtP null kill
CCc1ccc(OCC(=O)NC(=S)Nc2cccc(CO)c2)c(Br)c1	-37	-5.8	0	-3	-4	8335	-20
CC(=O)N1c2ccc(S(=O)(=O)N3CCC(C(=O)Nc4cccc(C(F)(F)F)c4)CC3)cc2CC1C (configuration not stated)	-7	-6.4	-7	-4	9	4635	-3
Cc1ccc(Cn2c(=O)cc(C(=O)O)c3ccccc32)cc1	-30	2.5	-1	9	-5	10046	-4
COCC(=O)N(CCc1ccc(OC)c(OC)c1)Cc1nc2ccccc2c(=O)[nH]1	-20	-6.8	-2	-2	-3	3602	4
CCCOc1ccc(CN(CCO)CCO)cc1[N+](=O)[O-]	-9	0.4	2	1	/	2351	1
CCOC(=O)c1ccc(NC(=O)CSc2nnc(Cc3cccs3)n2C)cc1	-17	-19	11	-15	5	3211	-5
CCOc1ccc(N(CC(=O)NC2CCCCC2)C(=O)CCC(=O)Nc2nc(C)cs2)cc1	-12	2.6	1	-3	-7	5110	-4
CC(C)c1ccc(NC(=O)C(c2ccc3c(c2)OCO3)N2CCC3(CC2)OCCO3)cc1 (configuration not stated)	-10	-9.7	18	15	-3	4900	11
CCOC(=O)c1sc(-c2cccc([N+](=O)[O-])c2)cc1N	-25	4.6	2	11	-9	4792	1
Cc1ccccc1-n1nnnc1SCCCC(=O)c1ccc(F)cc1	-20	9.6	11	10	-6	7159	11
Cc1cccc(-n2c(=O)c3c4c(sc3n3c(=S)[nH]nc23)CCC4)c1	-2	9.0	5	1	-2	4476	7
COc1ccc(OC)c(CCNC(=O)CCCC(=O)n2ncc3cc(C)ccc32)c1	-19	2.4	-2	3	2	5869	-3
COc1ccc(F)cc1C(=O)C1CCCN(C(=O)c2cccc(N(C)C)c2)C1 (configuration not stated)	-15	7.3	-8	-5	-9	4812	16
CCOC(=O)c1cn(-c2ccc(F)c(F)c2)c2c(F)c(F)c(F)c(F)c2c1=O	/	6.0	14	2	-3	/	-2
COc1ccc(Cl)cc1NC(=O)CN(C)C(=O)c1ccc(OCc2ccccc2)c(OC)c1	7	-1.6	-4	10	-4	6893	-7
CC(C)(C)OC(=O)N1Cc2ccccc2C[C@H]1C(=O)NCC(=O)NC1CCCCC1	-4	5.2	17	10	0	5353	7
C=CCn1c(SCC(=O)NC2CCCC2)nnc1-c1cccnc1	-19	2.0	3	-10	1	5909	2
COCCN1Cc2cccc(C(=O)Nc3ccc4c(c3)OCCO4)c2C1=O	-5	0.8	/	/	1	5747	1
Cc1cccc(NC(=O)CSc2nc3ccc(N4C(=O)c5ccccc5C4=O)cc3s2)c1C	-38	14	7	2	-1	10184	0
O=C(NS(=O)(=O)N1CCOCC1)C1=C(N2CCCC2)COC1=O	-17	8.1	1	-5	/	4041	1
Cc1ccc2c(C)c(C(=O)N(Cc3ccc(F)cc3)C3CCS(=O)(=O)C3)oc2c1 (configuration not stated)	-5	5.3	16	8	-9	4619	4
Cc1cccc(-c2onc3ccc(C(=O)/C=C/N(C)C)cc23)c1	-19	9.5	3	11	-5	3583	-14
NC(=S)Cc1nc(-c2ccc(Cl)cc2)cs1	2	-1.2	16	0	10	4343	26
O=C(N/N=C/c1cccnc1)c1ccc(NC(=O)c2ccc(F)cc2)cc1	-18	/	/	/	-7	3062	/
Cc1nn(-c2ccccc2)c(Cl)c1/C=N/NC(=O)c1ccco1	-64	/	/	/	0	9598	/
CSc1nc2ncc3c(n2n1)CC1c2ccccc2CCN1C3=O (configuration not stated)	-12	2.0	2	11	-9	9385	-7
COc1ccc(N2CC(C(=O)NN=Cc3cccs3)CC2=O)cc1 (configuration not stated)	/	2.5	4	0	/	/	0
Cc1c2c(=O)n(-c3nc4ccccc4s3)nc-2cc(O)n1Cc1ccccc1	65*	15	-4	-2	/	4327	-4
O=C(Nc1ccc(N2CCCC2)c(Cl)c1)c1ccc([N+](=O)[O-])o1	-43	33	24	38	/	3079	88
Cc1nnc(SCC(=O)N/N=C/c2cn(-c3ccccc3)nc2-c2ccccc2)n1-c1ccccc1	-14	/	/	/	8	2303	/
COc1ccc(Cl)cc1NC(=O)CNc1ccccc1F	-18	3.2	14	2	-11	2463	11
CCC(Cc1ccccc1)NS(=O)(=O)c1ccc2c(c1)NC(=O)C(C)S2 (configuration not stated)	-20	7.5	-9	-6	7	5699	1
O=C(NCCO)C(=O)Nc1cc2c3c(c1)CCN3C(=O)CC2	-41	2.1	-2	2	-3	4154	4
COc1ccccc1CNCc1cc(=O)oc2c(C)c(C)ccc12	-2	6.1	-5	-8	12	3252	9
CCOC(=O)c1sc(NC(=O)C2CC=CCC2C(=O)O)nc1C (configuration not stated)	-24	3.8	20	10	-2	11341	7
O=C(NC1CC1)C1CCN(C2CCN(C(=O)/C=C/c3ccc(F)cc3)CC2)CC1	-9	-1.1	-2	9	5	2795	1
CCn1c(C)c(C2=CCN(S(=O)(=O)c3ccccc3)CC2)c2ccccc21	-7	2.6	0	5	7	3984	14
O=C(CSc1cn(Cc2ccccc2)c2ccccc12)Nc1nccs1	-37	12	-1	7	2	6269	-8
CN(C)c1ccc(C2C3C=CC(C3)C2(C#N)C(=O)O)c(Br)c1 (configuration not stated)	-41	2.3	3	-2	-9	3748	7
COc1ccc(/C=C(\NC(=O)c2ccccc2)C(=O)NCc2ccco2)cc1	-31	0.6	2	-10	-4	3508	1
COc1cc(SC#N)ccc1N=Cc1c(C)[nH]n(-c2ccc(Cl)cc2)c1=O	-9	0.9	/	/	3	2411	1
CCCc1nnc(NC(=O)CCC(=O)N2CCN(Cc3ccc(F)cc3)CC2)s1	1	1.6	4	7	3	6014	2
Cc1nn(Cc2cccc(C(=O)N3CCCC(C)C3)c2)c(C)c1[N+](=O)[O-] (configuration not stated)	-10	7.5	13	11	17	3884	15
O=C(NC1CCCC1)C(c1cccnc1)N(Cc1ccccc1F)C(=O)c1csnn1 (configuration not stated)	-15	4.0	4	4	0	3856	3
CSc1ccc(S(=O)(=O)N(CC(=O)NN=C2CCN(C)CC2)c2ccc(C)cc2)cc1	-9	-1.4	-3	9	-1	2020	10
O=C(Nc1nc(-c2cc3ccccc3oc2=O)cs1)c1ccc(Br)o1	-9	3.6	/	/	2	2628	-3
C=CCNC(=S)N/N=C/c1ccc(OCc2ccccc2Cl)cc1	-4	/	/	/	22	19727*	/
O=C(c1cccnc1)N1N=C2CCCCCC2C1(O)C(F)(F)F (configuration not stated)	-69	2.7	0	0	2	3594	6
COc1ccc(CSC2=NCCN2)cc1Cl	-16	-4.8	-1	-9	-8	7955	2
Cc1cc(C(=O)N2CCCc3ccccc32)ccc1[N+](=O)[O-]	-6	2.5	4	0	-9	3766	5
CCOc1cc2[nH]c(=S)n(Cc3ccc(C(=O)NCCCN(CC)CC)cc3)c(=O)c2cc1OCC	1	0.4	5	-3	-2	3155	20
Cc1cccc(NC(=O)c2cnn(C)c2)c1C	-14	3.8	5	3	-5	2486	12
COCCN(C(=O)/C=C/c1cccc([N+](=O)[O-])c1)c1c(N)n(Cc2ccccc2)c(=O)[nH]c1=O	-25	2.8	9	-6	6	3502	-2
CCc1ccc(OCC(=O)NNC(=O)c2cc(S(=O)(=O)N3CCOCC3)ccc2N2CCCC2)cc1	-12	5.3	4	6	/	3662	4
O=C(CN1C(=O)NC2(CCCC2)C1=O)OCc1ccccc1F	-9	0.6	4	8	/	/	0
COc1ccc(C(CNC(=O)C(C)Oc2ccc(Br)cc2)N2CCOCC2)cc1 (configuration not stated)	-40	2.7	-13	1	-8	6634	-6
O=C(Nc1nccc(-c2cccs2)n1)c1ccccc1Cl	-65	/	/	/	-11	19543*	/
Cc1noc(C)c1C(=O)OCC(=O)N(C)C1(C#N)CCCCC1	-11	4.8	11	5	/	3477	0
CCC(C)N(C(=O)Cn1nnc(-c2ccc(Cl)cc2)n1)C1CCS(=O)(=O)C1 (configuration not stated)	-2	12	13	0	8	?	6
Cc1cc(C(=O)NN=Cc2ccc([N+](=O)[O-])s2)n[nH]1	/	100*	/	/	/	/	98*
COc1ccc(Cl)c(NC(=O)Nc2c(C)n(-c3ccccc3)c(=O)n2C)c1	-22	-1.1	/	/	-4	2185	7
CSC(=S)N(C)C1CCS(=O)(=O)C1 (configuration not stated)	-13	-0.8	-3	10	-8	2043	-3
CC(C)(CCl)C(=O)Nc1ccc(C(F)(F)F)cc1	-21	-1.0	10	0	-9	2013	-5

(cont.)
SMILES	PrP UTR inh	Sa RN4220 lethal	Mtb hypoxia inh	Mtb hypoxia inh growth	BJeLR lethal	Bead autofluor	ugtP null kill
C=CCn1c(O)c(C(C)=NCCCN(C)C)c(=O)[nH]c1=O	-26	0.3	15	4	-13	4562	13
CCc1cc2c(=O)[nH]c(N3CCOCC3)nc2s1	-11	3.6	/	/	4	4924	-3
Cc1onc(-c2ccccc2)c1C(=O)NN=Cc1c[nH]c2ccccc12	/	4.6	11	8	/	/	-3
CSCCC(NC(=O)NCc1cccs1)C(=O)O (configuration not stated)	/	3.2	7	13	/	/	0
CCCCNS(=O)(=O)c1ccc2nc(-c3cccs3)cc(C(=O)NCC(OC)OC)c2c1	/	4.6	-3	12	4	/	7
Cc1cc(Br)ccc1OCCCCNCCO	-9	4.4	18	16	2	21727*	-1
COc1ccc(-c2cc(C(F)(F)F)n3nc(C(=O)NCCCN4CCOCC4)cc3n2)cc1	/	-2.9	13	-4	7	/	-2
Cc1c(Cl)cc(C(C)C)c(O)c1CN1CCOCC1	-1	5.5	19	1	/	3025	10
CCN(CC)c1ccc(NC(=O)Nc2ccccc2C(F)(F)F)cc1	-58	9.2	13	9	6	2869	0
